# LANA-nucl inh = inhibitors of KSHV LANA binding to nucleosomes; FITC-LANA1-23 / chicken nucleosome fluorescence polarization; hits give low values; z-score (no concentration beside the values); hit rate 0.3% among 51,000;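 active means both repeat wells score below -2 in polarization z-score versus plate sample wells, excluding overly bright wells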;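 further: 100 nL library stock added to about 30 µL; numbers are from one replicate; some results filed as inactive read as strong as hits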
#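 Material: Purified chicken nucleosomes with FITC-labelled LANA N-terminal peptide (1-23) | Reagent: 50 nM FITC-LANA1-23 probe | Medium: TEN-BT buffer, pH 7.5 | Times: 10–45 min incubation at room temperature | Detection: Fluorescence polarization | Replication: Duplicates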
# BasE inh = blocks the Acinetobacter baumannii siderophore enzyme BasE | purified BasE, fluorescence polarization binding displacement | hit rate 0.1% among 84,000 | inhibition, % (concentration not given with the values);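 active means both replicates above 25% with normal brightness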;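 further: 0% = negative plate control signal and 100% = positive plate control signal; stock transfer was 100 nL into about 30 µL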
# * = called active by the depositor; · = not tested or not shown. The list is partial. The share of hits here may be higher or lower than overall.
canonical_smiles,LANA-nucl inh,BasE inh
Cc1ccc(NC(=O)C2Cc3ccccc3O/C2=N\O)cc1C (stereo not given),0.407,0.5
COc1ccc(/C=[N+](/C)[O-])cc1,-0.455,·
Cc1ccc(C)c(NC(=O)CN(C)c2ncccn2)c1,·,3.0
CCN(CC)C(=O)c1sc(NC(=S)N2CCN(Cc3cnn(CC)c3C)CC2)c(C(=O)OC)c1C,-1.38,-0.9
O=C(Oc1ccccc1OC(=O)c1ccccc1)c1ccccc1,·,1.4
Cc1ccc(SC(=O)c2c(C)noc2-c2cc(C)on2)cc1,·,1.4
O=C(O)C1C2C=CC(O2)C1C(=O)Nc1nc(-c2ccccc2)cs1 (stereo not given),·,3.2
COc1ccc2c(c1)CCc1cn[nH]c1-2,-1.53,·
N#Cc1ccc(CC(C#N)(Cc2ccc(C#N)cc2)c2nnc3n2CCCCC3)cc1,·,1.6
CCOC(=O)c1c(C)oc2ccc(OC(=O)Nc3ccc(Cl)cc3)cc12,·,1.8
O=C(CSc1nnnn1-c1ccccc1)n1c2ccccc2c2ccccc21,0.623,0.9
COc1ccc(Cl)cc1Nc1nc(N)nc(CC(=O)CSc2nc3ccccc3s2)n1,·,2.2
CSC(=S)Nc1ccc(C)cc1,-0.021,0.6
O=C(NCc1ccccc1)c1cccnc1NC1CCCCC1,-0.509,0.4
C#CCn1c(O)c(N=NC(=O)Cn2nnc(-c3ccccc3)n2)c2cc(Br)ccc21,-1.81,-0.9
CCOC(=O)c1sc(NC(=O)c2cc(C(C)C)on2)c(C(=O)OCC)c1C,-0.544,3.4
C=CCn1c(=S)[nH]c2cc(C(=O)N3CCN(c4ccccc4OC)CC3)ccc2c1=O,·,0.3
O=C(NCCCN1CCOCC1)c1cc2ccccc2oc1=O,0.393,-1.4
CSc1ncc(C(=O)OCC(=O)N2CC(C)OC(C)C2)n1-c1ccccc1 (stereo not given),·,0.7
COc1cc2c(cc1OC)C(c1ccccc1)N(C(=O)c1ccco1)CC2 (stereo not given),1.85,-3.3
NC1=Nc2cc(=O)[nH]c3nnc(n23)SC1,-0.049,-0.1
Cc1[nH]n(-c2ccc(Cl)cc2)c(=O)c1C(=O)c1ccccc1,0.495,-0.7
COc1ccc(NC(=O)C(NC(=O)c2ccccc2)C(C)C)cn1 (stereo not given),·,-0.6
O=c1[nH]c2ccccc2c(=O)n1CCNCc1ccccc1,·,-5.8
Cc1cc(=O)[nH]c(SCC(=O)NC2CCCCC2)n1,-0.491,0.2

# Going on with the list.
canonical_smiles,LANA-nucl inh,BasE inh
CN(CCC#N)S(=O)(=O)c1cc(Br)ccc1Br,·,-0.8
CC1CCCC(NS(=O)(=O)CC23CCC(CC2=O)C3(C)C)C1C (stereo not given),·,-0.6
Cc1cc(C(=O)Nc2cccc3c2CCCC3)n[nH]1,-1.95,-0.2
O=C(Nc1ncn[nH]1)C1CCN(S(=O)(=O)c2ccc(Cl)cc2)CC1,0.28,-0.2
O=C(Nc1ccc(Cl)c(C(F)(F)F)c1)c1nccnc1CO,-0.269,0.8
C=CCSc1n[nH]c(C(C)(C)C)n1,·,0.3
CN(Cc1ccccc1)C(=O)Cn1ncc2c([nH]c3ccccc32)c1=O,-0.0965,-1.3
O=C1Cc2cc(S(=O)(=O)NC3CCCCC3)ccc2N1,0.743,-3.0
COc1ccc2c(c1)c(CC(=O)NCc1ccco1)c(C)n2C(=O)c1ccc(Cl)cc1,-0.534,1.9
C/C(=N\NC(=O)CCc1ccc(S(=O)(=O)N2CCOCC2)cc1)c1ccc2c(c1)OCCO2,·,-1.4
COc1cc2c(cc1OC)CN(C(=O)CCNC(=O)c1ccccc1Cl)CC2,·,-0.1
CC(C)(C)OC(=O)Nc1cccc(C(=O)O)c1,·,1.1
CC1=C(C(N)=O)C(c2ccco2)C(C#N)=C(SCC(N)=O)N1 (stereo not given),·,-2.4
CN1CCN(C(=O)c2ccc(C(=O)N3CCN(C)CC3)cc2)CC1,-0.0715,0.9
COC(=O)c1cc(N)cc(C(=O)OC)c1,·,-2.1
Cc1cnc(NC(=O)[C@@H](NC(=O)c2ccccc2F)C(C)C)s1,·,-0.2
O=C(NCc1ccco1)C1=NN(c2ccccc2)C(=O)CC1,·,-2.9
CCC1CSC(Nc2cccc(C(F)(F)F)c2)=N1 (stereo not given),-0.622,·
O=C1CC(N2CCCc3ccccc32)C(=O)N1c1ccc(Br)cc1F (stereo not given),-1.01,-0.7
O=C(Nc1ccc(C(F)(F)F)cc1)c1cnc(N2CCN(c3ccccn3)CC2)c2ccccc12,·,0.6
Brc1cnc2nc(-c3ccccc3)[nH]c2c1,·,-2.1
O=C(Nc1ccc2c(c1)OCO2)c1cc(S(=O)(=O)N2CCN(c3ccccc3)CC2)ccc1Cl,·,-0.3
CC(CCCCC(=O)Nc1ccc(C(F)(F)F)cc1)NCCc1cnc[nH]1 (stereo not given),-0.0165,·
CCOC(=O)c1c(N2C(=O)C3ON(c4ccccc4C)C(c4ccccc4)C3C2=O)sc(C)c1C (stereo not given),·,-0.7
COc1ccccc1CNS(=O)(=O)Cc1ccccc1,0.153,3.6

# New compounds follow
canonical_smiles,LANA-nucl inh,BasE inh
CC(C)Sc1nc2cc(S(=O)(=O)N3CCCCC3)ccc2o1,·,0.7
CC(C)=NNC1=NC(C)(C)Cc2ccccc21,-0.0075,-1.4
COc1ccc(CNC(=O)C2CCCN(c3ncnc4onc(-c5ccc(F)cc5)c34)C2)cc1 (stereo not given),·,-1.4
CC(=O)NC(CC(C)C)C(=O)O (stereo not given),-0.39,-1.4
O=C(O)c1cc(Cl)ccc1OCc1ccccc1,0.486,1.6
COc1ccc(CCN2C(=O)C3C4C=CC(O4)C3C2=O)cc1OC (stereo not given),-0.576,0.8
CCCNC(=O)CN1CCN(c2cc3ccccc3c(Cl)n2)CC1,·,4.0
S=C1CCc2ccccc2N1Cc1ccccc1,·,1.4
CCN(CC)Cc1ccc(C(=O)O)cc1,-0.221,1.2
CC(c1ccccc1)n1c(SC(F)F)nc2ccccc2c1=O (stereo not given),·,0.7
NS(=O)(=O)c1ccc(CNS(=O)(=O)c2ccccc2)cc1,·,1.6
CCOC(=O)/C=C1\SCC(=O)N1Cc1ccc(C(=O)OC)cc1,·,-4.0
O=C(CSCc1c(Cl)cccc1Cl)N1CCOCC1,-1.04,1.2
N#Cc1cc2ccc(Br)cc2cc1C#N,-0.774,6.3
CC(c1cccs1)n1nccc1NC(=O)CCC(=O)O (stereo not given),·,-0.1
CSc1nc(C)c(CCC(=O)OCC(N)=O)c(C)n1,·,3.1
O=C1CN(O)C=C2N=c3ccccc3=C2N1c1ccccc1,0.781,0.4
CCOC(=O)c1oc2ccc(Br)cc2c1COC(=O)Cn1c(=O)oc2ccccc21,·,-0.5
NCCCN1CCCCC1,-1.44,0.5
CN(C)C(=S)NC1CCCCC1,·,5.2
O=C(O)c1ccc(-c2nn[nH]n2)cc1,0.251,3.2
COc1ccc(S(=O)(=O)NNc2ncnc3sc4c(c23)CCCC4)cc1,0.681,1.7
CCN(CC)c1ccc(/C=C2/SC(=O)NC2=O)cc1,2.22,-7.6
Cc1ccc2oc(-c3ccc(C(C)(C)C)cc3)nc2c1,-0.0215,-1.2
O=C1CCCc2[nH]c(-c3ccccc3)nc21,0.626,0.2

# 3 entries picked at random from those above, as already listed:
canonical_smiles,LANA-nucl inh,BasE inh
CC(c1cccs1)n1nccc1NC(=O)CCC(=O)O (stereo not given),·,-0.1
COc1ccc(S(=O)(=O)NNc2ncnc3sc4c(c23)CCCC4)cc1,0.681,1.7
CCOC(=O)c1oc2ccc(Br)cc2c1COC(=O)Cn1c(=O)oc2ccccc21,·,-0.5

# The list goes on:
canonical_smiles,LANA-nucl inh,BasE inh
Nc1ccccc1C(=O)NC12CC3CC(CC(C3)C1)C2,-0.65,1.2
O=C(NC1CCN(Cc2ccccc2)CC1)c1ccc2c(c1)OCCCO2,-0.45,·
CC1CCN(C(=O)Nc2csc3ccccc23)CC1,0.997,·
S=C1C=C(N2CCCCC2)CC(c2cccs2)S1 (stereo not given),2.05,·
Cc1oc(-c2ccccc2)nc1C(=O)OCC(=O)c1ccc(Cl)cc1,·,-0.5
Cn1cccc1C(=O)O,·,-0.3
CC(C)NC(=O)C1CCCN1C(=O)Nc1ccccc1 (stereo not given),1.71,-4.4
CC(C)(C)OC(=O)CSc1nnc(-c2cc(Cl)ccc2Cl)n1N,·,-4.5
O=C(OCC(=O)N1c2ccccc2Sc2ccccc21)c1cnccn1,·,-1.1
CCOc1ccc(NC(=S)Nc2cc(C)[nH]n2)cc1,0.112,1.1
CC(=O)OC1CCC2OC1CCC2OC(C)=O (stereo not given),-1.18,2.9
Fc1ccccc1NC(=S)N/N=C/c1cn(-c2ccccc2)nc1-c1cc2ccccc2o1,·,2.8
COc1ccc2nc(N=NC3=C(O)CC(C)(C)CC3=O)sc2c1,·,2.4
O=c1c2ccccc2nnn1CSc1nc2cc(Cl)ccc2c(=O)n1C1CCCC1,·,0.9
N=C1c2ccccc2CN1NC(=O)CC12CC3CC(CC(C3)C1)C2,·,2.9
CCCCCCCC/C=C\CCCCCCCC(=O)OC[C@H](CO)OC(C)=O,0.232,-1.8
O=C(Nc1c[nH]c2ccccc2c1=O)NC1CCCC1,-1.39,1.2
COC(=O)c1cc(CSc2nc3ccccc3[nH]2)ccc1O,·,0.6
Cn1c(C(C#N)C(=O)c2cc(-c3cccnc3)nc3ccccc23)nc2ccccc21 (stereo not given),·,-6.1
NC(=S)c1nc(-c2ccccc2)oc1N,·,9.1
COc1ccccc1/C=N/OCC(=O)N(C)c1ccccc1,·,-1.8
CCN(CC)c1c(S(=O)(=O)c2ccccc2)cnc2cc(OC)c(OC)cc12,-1.21,-0.1
CCCNS(=O)(=O)c1cc(OC)ccc1OC,0.0935,-1.8
O=C(O)COCC(=O)Nc1ccc(-n2cnnn2)cc1,-1.7,2.5
Cc1cc(C)c2c(N)c(-c3n[nH]c(=S)n3C)sc2n1,-8.57,-9.0

# Looked up above.
# Value for NC(=S)c1nc(-c2ccccc2)oc1N in BasE inh: 9.1
# Value for O=C(O)COCC(=O)Nc1ccc(-n2cnnn2)cc1 in BasE inh: 2.5
# Value for Cc1cc(C)c2c(N)c(-c3n[nH]c(=S)n3C)sc2n1 in LANA-nucl inh: -8.57
# Value for O=c1c2ccccc2nnn1CSc1nc2cc(Cl)ccc2c(=O)n1C1CCCC1 in BasE inh: 0.9

# Next part:
# Order of results – LANA-nucl inh | BasE inh
> Cn1c(-c2ccccc2)cnc1NCc1ccc(Br)cc1
  -1.26 | -3.1
> C=CCn1c2nc3ccccc3nc2c2c(=O)n(Cc3ccc4c(c3)OCO4)cnc21
  · | -1.9
> O=S(=O)(NCCc1nc2ccccc2[nH]1)c1ccccc1
  2.67 | 1.4
> COc1cccc(N/C=C/C(=O)c2cccs2)c1
  -0.478 | 0.4
> Nc1nc2ccccc2n1CCOc1ccc2ccccc2c1
  -0.518 | -4.2
> O=C(N/N=C/c1c[nH]c2ccc(Br)cc12)C1CC1
  · | -4.4
> CC1Cc2ccccc2N1C(=O)c1ccc2c(c1)nnn2C (stereo not given)
  -0.445 | 2.0
> CCCc1cc(NC(=O)COC(=O)c2ccc(O)cc2O)n(-c2ccccc2)n1
  · | -0.6
> CS(=O)(=O)NCCc1ccc(C(=O)O)cc1
  · | 1.6
> N#Cc1ccc2ccn(CC(=O)NCCc3ccccc3)c2c1
  -0.772 | -3.3
> O=C(Cn1c(-c2ccccc2)noc1=O)Nc1ccc(N2CCCCCC2)cc1
  0.043 | -1.6
> CCOC(=O)/C=C(\C)Nc1cc(-c2ccc(Cl)cc2)[nH]n1
  0.066 | 4.1
> CC1=C(C#N)C(Nc2ccccn2)(C(F)(F)F)C(=O)N1 (stereo not given)
  -0.203 | -1.8
> O=C(O)CCn1cc(/C=C2\SC(=S)NC2=O)c(-c2ccccc2)n1
  · | 4.8
> Cc1cc(C)n(CC(=O)n2c3ccccc3c3ccccc32)n1
  0.821 | 2.4
> CC1=C(C(=O)Nc2ccccc2C(=O)NCCc2ccco2)SCCO1
  -0.081 | 0.1
> CNC(=O)c1cc(OC)ccc1Br
  · | -1.4
> C=C(C)CN1C(=O)C(O)(c2c[nH]c3ccccc23)c2ccccc21 (stereo not given)
  0.384 | -0.5
> CCC[C@@H](C)C[C@H](C)C[C@H](C)C(=O)/C=C(\O)[C@H](C)C[C@H](C)C/C=C/[C@@H](C)[C@@H](O)[C@@H](C)[C@@H](O)C[C@@H]1CC[C@@](C)([C@H]2CC[C@@](C)([C@@H](C)O)O2)O1
  -0.659 | ·
> COc1ccc(NC(=O)Nc2c(C)noc2-c2ccccc2)cc1
  0.002 | 2.0
> NC(=O)NCC(=O)N1CCN(c2c(F)c(F)c(F)c(F)c2F)CC1
  · | -1.1
> CCOc1ccc(NC(=S)NC(C)(C)CC)cc1
  · | 1.3
> CCC(C)N=C1NC=NC2SC(C3COc4ccccc4O3)=CC12 (stereo not given)
  -0.804 | -1.3
> Cc1cccc(N2CCN(Cc3c(O)ccc4ccccc34)CC2C)c1 (stereo not given)
  · | 1.1
> CC1(c2ccc3c(c2)OCCO3)NC(=O)N(CC#N)C1=O (stereo not given)
  · | 0.9
> CCCC(=O)NC(=S)Nc1cccc(-c2nc3cc(C)cc(C)c3o2)c1C
  -0.609 | 3.0
> CN(C)C(=O)c1ccc(I)cc1
  -1.01 | 1.7
> O=C(CSc1nc2ccccc2n1Cc1ccccc1)Nc1ccccn1
  0.129 | 1.7
> CSc1nc(N/C=C(\C#N)S(=O)(=O)c2ccccc2Cl)nc(N(C)C)n1
  -0.485 | 1.8

# Sorted by the number under LANA-nucl inh (largest number first): 3 from the list above.
compound,LANA-nucl inh
C=C(C)CN1C(=O)C(O)(c2c[nH]c3ccccc23)c2ccccc21 (stereo not given),0.384
CCOC(=O)/C=C(\C)Nc1cc(-c2ccc(Cl)cc2)[nH]n1,0.066
CC1=C(C#N)C(Nc2ccccn2)(C(F)(F)F)C(=O)N1 (stereo not given),-0.203

# Bioassay records deposited in PubChem BioAssay by ICCB-Longwood Screening Facility, Harvard Medical School.
